Assay outcomes (PubChem BioAssay)
INS promoter inh: TRM-6 insulin promoter activity inhibition; AID 1273; hit rate 0.9% among 130,000; TRM-6 cells (human fetal islet line), insulin promoter-eGFP reporter, imaging; reporter expression induced with tamoxifen; inhibition, % at 2 µM;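 active means inhibition above the mean plus 3 SD, with well images judged a real hit on visual review, cut at about 60% in these data, passing the limit was not always enough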
PKD1 kinase inh: PKD1 (human) kinase inhibition | PKD1 kinase fluorescence polarization assay | Q15139 | inhibition, %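 (about 10 µM by stock and volumes)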 | hit rate 0.056% among 200,000;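 active means inhibition of 50% or more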;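 further: controls were vehicle for no effect and a reference inhibitor for full effect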
Target sequence (Q15139 whole entry, looked up): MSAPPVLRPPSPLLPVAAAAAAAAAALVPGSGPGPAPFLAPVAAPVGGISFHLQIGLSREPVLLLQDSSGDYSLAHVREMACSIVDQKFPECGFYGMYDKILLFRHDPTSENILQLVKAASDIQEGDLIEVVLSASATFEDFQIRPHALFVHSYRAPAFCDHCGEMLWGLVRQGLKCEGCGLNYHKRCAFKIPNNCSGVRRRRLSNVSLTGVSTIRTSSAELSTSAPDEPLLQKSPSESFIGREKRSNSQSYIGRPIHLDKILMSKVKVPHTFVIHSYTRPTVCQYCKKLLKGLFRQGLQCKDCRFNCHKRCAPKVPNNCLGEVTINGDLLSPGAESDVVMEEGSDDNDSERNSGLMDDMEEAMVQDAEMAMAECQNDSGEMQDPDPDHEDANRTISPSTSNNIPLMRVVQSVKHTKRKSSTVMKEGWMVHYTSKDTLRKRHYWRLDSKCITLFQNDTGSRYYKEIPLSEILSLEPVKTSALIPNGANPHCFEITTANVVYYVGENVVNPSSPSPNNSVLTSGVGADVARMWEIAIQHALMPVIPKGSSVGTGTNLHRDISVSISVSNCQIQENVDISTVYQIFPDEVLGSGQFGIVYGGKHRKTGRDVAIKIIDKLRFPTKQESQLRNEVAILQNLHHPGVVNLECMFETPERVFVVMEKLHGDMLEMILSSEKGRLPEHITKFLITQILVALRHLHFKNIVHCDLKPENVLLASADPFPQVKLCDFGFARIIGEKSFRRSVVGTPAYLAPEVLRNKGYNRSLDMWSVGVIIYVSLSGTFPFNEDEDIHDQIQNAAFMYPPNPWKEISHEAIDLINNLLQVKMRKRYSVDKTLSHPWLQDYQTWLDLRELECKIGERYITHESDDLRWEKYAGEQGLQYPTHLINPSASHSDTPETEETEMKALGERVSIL
RGS16-Gao HTS: RGS16-Galphao interaction regulator (human). O15492+P09471. bead-based flow cytometry RGS16-Galphao binding, fluorescence; actives lie on both sides. binding response (% of control), % at 10 µM. hit rate 0.38% among 220,000. AID 1441;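 active means below 25% or above 175%, edge rows of some plates excepted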;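 further: Galphao activated by GDP with aluminum fluoride before binding; 100% = wells without compound and 0% = beads without RGS; some results beyond the cut were filed as inactive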
GALR2 ag: activates the human galanin receptor 2. O43603. GALR2-expressing cells, agonist activation read-out. activation, %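 (tested at 5 µM)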. hit rate 0.48% among 140,000. AID 803;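 active means above mean plus 3 SD of all compounds, about 5% in these data, not always enough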;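 further: 0% = vehicle buffer wells and 100% = reference agonist at full effect; tested in CHO reporter cells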
HSV augment: HSV replication enhancement. HSV replication augmentation in cells, fold increase. hit rate 0.005% among 220,000. AID 1956. maximum fold increase;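 active means peak rise of 1.5-fold or more in the series; tested in PC3 cells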;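 further: first round at 10 µM; read as green reporter fluorescence; hits show the peak of a series up to 25 µM; 1 = signal of infected wells without compound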
INS promoter inh cell count: also measured in INS promoter inh; calls as there; normalized cell count, %; measured here: cell count, toxicity; reference of the scale not given here;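 cells exposed to compound for 48 h; stained nuclei by imaging scaled within each plate; lower means fewer cells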
HSV augment primary fold: further read-out of HSV augment, marked with its call; fold increase; compound at 10 µM; measured here: primary screen fold increase 10 uM; tested in PC3 cells;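 GFP signal in the first replicate; 1 = infected wells without compound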
Starred values were filed as active, the others as inactive; i = inactive; . = not tested or not shown. This is a random part of the collection; about 1.3% have a hit in one of these screens.

SMILES | INS promoter inh | INS promoter inh cell count | PKD1 kinase inh | RGS16-Gao HTS | GALR2 ag | HSV augment | HSV augment primary fold
COCCNC(=O)CSc1nc2cc3c(cc2c(=O)n1CCCC(=O)NCc1ccc(OC)cc1)OCO3 | -21 | 113 | -9 | 96 | . | i | 0.84
CCOC(=O)N1CCN(CC(=O)c2c(C)[nH]c3ccccc23)CC1 | . | . | -2 | 98 | -0.4 | i | 1.1
c1ccc(Oc2cccc3cccnc23)nc1 | . | . | . | 106 | . | i | 0.95
COc1ccc(CNC(=O)C(=O)NCC2CCCO2)cc1 (stereo unspecified) | -24 | 139 | -4 | 96 | -1.2 | i | 0.94
Nc1c(NCc2ccccc2)c(=O)[nH]c(=O)n1Cc1ccccc1 | 0 | 149 | -8 | 98 | -2.4 | i | 1.1
O=C(Oc1c(Br)cc(Br)c2cccnc12)N1CCCCC1 | 6 | 99 | -2 | 106 | . | i | 1
COc1ccc(C)cc1N(CC(=O)Nc1cccc(N(C)S(C)(=O)=O)c1)S(C)(=O)=O | 56 | 113 | -10 | 97 | -1.3 | i | 0.9
CCOc1cc(/C=N/NS(=O)(=O)c2ccccc2)ccc1OS(=O)(=O)c1ccc(C)cc1 | -25 | 120 | 1 | 101 | -0.7 | i | 0.94
Cc1nc2scc(-c3ccc(Cl)cc3)c2c(=O)n1N | 11 | 109 | -8 | 103 | . | i | 0.86
O=C(Nc1ccccc1)C1CCCN1/C=C/C(=O)C(F)(F)F (stereo unspecified) | -8 | 72 | -8 | 104 | . | i | 0.87
O=C(CCCN1C(=O)/C(=C/c2cccc(Br)c2)SC1=S)Nc1cccnc1 | . | . | -1 | 97 | . | i | 0.61
c1cncc(CSc2ccc(-c3cccs3)nn2)c1 | . | . | -1 | 106 | . | i | 0.97
O=C(c1ccccc1F)N1CCOCC1 | . | . | -6 | 107 | . | i | 0.95
O=c1c2ccccc2nnn1CSc1nnc(-c2cccnc2)n1-c1ccccc1F | . | . | -10 | 109 | -2.1 | i | 0.95
Cc1ccc(S(=O)(=O)N2CCCCC2)cc1NC(=O)c1ccc2ccccc2n1 | 13 | 124 | 7 | 72 | -0.9 | i | 0.9
O=c1cc(COn2nnc3ccc(C(F)(F)F)cc32)nc2sccn12 | 45 | 186 | -3 | 106 | 0.6 | i | 1
COc1ccc(CNC(=O)CN2CCN(S(=O)(=O)c3cccs3)CC2)cc1OC | -21 | 96 | 4 | 100 | . | i | 0.94
CCN1CCN(C2=C(Cl)C(=O)N(Cc3ccccc3)C2=O)CC1 | -10 | 163 | -3 | 101 | -1.5 | i | 0.9
O=C1C2CCCN2C(c2ccc(F)cc2)N1c1cccc(Cl)c1 (stereo unspecified) | . | . | 12 | 105 | -1.9 | i | 0.85
COc1ccc(C(=O)N2CCN(C3CCC(c4ccccc4)CC3)CC2)cc1OC (stereo unspecified) | -35 | 118 | -4 | 125 | -3.1 | i | 1.1

Rewritten with two lines to a compound: 4 of the compounds above.
Values in the order – INS promoter inh | INS promoter inh cell count | PKD1 kinase inh | RGS16-Gao HTS | GALR2 ag | HSV augment | HSV augment primary fold
O=c1cc(COn2nnc3ccc(C(F)(F)F)cc32)nc2sccn12
  45 | 186 | -3 | 106 | 0.6 | i | 1
O=c1c2ccccc2nnn1CSc1nnc(-c2cccnc2)n1-c1ccccc1F
  . | . | -10 | 109 | -2.1 | i | 0.95
O=C(CCCN1C(=O)/C(=C/c2cccc(Br)c2)SC1=S)Nc1cccnc1
  . | . | -1 | 97 | . | i | 0.61
c1cncc(CSc2ccc(-c3cccs3)nn2)c1
  . | . | -1 | 106 | . | i | 0.97

Carrying on.
SMILES | INS promoter inh | INS promoter inh cell count | PKD1 kinase inh | RGS16-Gao HTS | GALR2 ag | HSV augment | HSV augment primary fold
Cc1ccc(C(N)=S)c(C)c1 | -11 | 40 | 3 | 107 | 0.4 | i | 1
CN1CCC(NC(=O)Cc2c(F)cccc2Cl)CC1 | -78 | 121 | 7 | 111 | -1.2 | i | 0.85
Cc1cccc(N2CCN(C(=O)Cc3c(C(=O)O)[nH]c4ccc(Cl)cc34)CC2)c1C | 29 | 113 | -10 | 102 | -0.5 | i | 1
Clc1ccc(-c2csc3ncnc(N4CCc5ccccc5C4)c23)cc1 | 13 | 124 | 0 | 100 | -1.7 | i | 0.85
COc1cc(N=c2ssnc2Cl)c(OC)cc1Cl | -5 | 180 | -8 | 83 | -0.5 | i | 0.82
CCCCNc1nc(CC(C)=O)ns1 | -42 | 52 | 4 | 102 | -3.2 | i | 1.1
Cc1nc(CCNC(=O)COc2ccccc2)cs1 | . | . | 2 | 98 | 0.2 | i | 0.75
COc1ccc(NC(=S)N(Cc2cccnc2)Cc2ccco2)cc1 | . | . | -9 | 103 | . | i | 1
CCN1CCN(C(=O)c2cc3nc(-c4ccccc4)cc(C(F)(F)F)n3n2)CC1 | 40 | 111 | -3 | 100 | -3.8 | i | 1.1
O=C(N/N=C/c1ccc2c(c1)OCO2)c1cc(-c2ccccc2)nc2ccccc12 | 0 | 44 | -8 | 128 | -0.2 | i | 0.84
CCOC(=O)c1cn(Cc2c(C)c(C)c(C)c(C)c2C)nn1 | -16 | 90 | 4 | 103 | -0.6 | i | 0.99
COc1cc([N+](=O)[O-])cc(/C=N/NC(=O)c2cncc(Br)c2)c1O | . | . | . | 74 | . | i | 0.93
CSCc1nc2scc(-c3ccccc3)c2c(=O)[nH]1 | -78 | 93 | -3 | 97 | . | i | 1
CCOc1cc(/C=N/NC(=O)c2ccncc2)cc(Cl)c1OS(C)(=O)=O | 28 | 35 | 2 | 62 | -2.5 | i | 0.98
Cc1ccc(NC(=O)c2ccoc2C)cc1C | -3 | 125 | -3 | 87 | -0.1 | i | 1
O=C(CCC(=O)c1cccs1)NCc1ccncc1 | -41 | 112 | -5 | 112 | . | i | 0.99
CCCOc1c(OC)cccc1C1CC(=O)Nc2cc3c(cc21)OCCO3 (stereo unspecified) | 3 | 84 | 12 | 101 | -1.8 | i | 0.69
CCCOc1ccc(OCCSc2ncccn2)cc1 | -58 | 81 | -4 | 99 | -2.3 | i | 0.94
CC(NC(=O)c1ccco1)C(c1cccs1)N1CCOCC1 (stereo unspecified) | . | . | -21 | 101 | -0.7 | i | 1.1
COc1ccc2cc(Br)ccc2c1CC(=O)NCC1CCCO1 (stereo unspecified) | 0 | 79 | 6 | 102 | . | i | 1.1
COc1ccc(/C=C/C(=O)N2CCN(S(=O)(=O)/C=C/c3ccccc3)CC2)cc1OC | -10 | 84 | -4 | 102 | 1.0 | i | 1
Cc1cc(SCC(=O)Nc2ccccc2C)nc(C)n1 | 30 | 107 | -3 | 98 | -0.7 | i | 1.1
O=[N+]([O-])c1cccc(S(=O)(=O)NCCCN2CCOCC2)c1 | 0 | 81 | 3 | 71 | -0.8 | i | 1
CCOC(=O)c1sc2nc(C(C)C)c3c(c2c1N)CCC3 | . | . | 5 | 100 | 1.3 | i | 1
COC(=O)c1c(C)c(C)nc(N)c1C#N | 3 | 73 | -1 | 101 | -1.1 | i | 1
CCCNC(=O)N1CCC(C(=O)c2ccc(F)cc2)CC1 | 26 | 115 | 0 | 100 | -1.4 | i | 0.91
CN(Cc1ccccc1)C(=O)COC(=O)c1cc(Cl)nc(Cl)c1 | -56 | 97 | 3 | 98 | . | i | 1
COc1cc(OC)cc(C(=O)Nc2ccc(-c3nc4ccccc4o3)cc2)c1 | . | . | -5 | 147 | -2.0 | i | 0.81
CC(Oc1ccccc1F)C(=O)NN (stereo unspecified) | -7 | 134 | 4 | 103 | -1.4 | i | 1.1
COc1cc(/C=C(\C#N)C(=O)N2CCOCC2)cc(Br)c1O | 55 | 103 | 3 | 101 | -1.0 | i | 1

Shown with each value named: entries from further up.
COc1ccc(C(=O)N2CCN(C3CCC(c4ccccc4)CC3)CC2)cc1OC (stereo unspecified)
  INS promoter inh = -35	INS promoter inh cell count = 118	PKD1 kinase inh = -4	RGS16-Gao HTS = 125	GALR2 ag = -3.1	HSV augment = i	HSV augment primary fold = 1.1

Cc1ccc(C(N)=S)c(C)c1
  INS promoter inh = -11	INS promoter inh cell count = 40	PKD1 kinase inh = 3	RGS16-Gao HTS = 107	GALR2 ag = 0.4	HSV augment = i	HSV augment primary fold = 1

CN1CCC(NC(=O)Cc2c(F)cccc2Cl)CC1
  INS promoter inh = -78	INS promoter inh cell count = 121	PKD1 kinase inh = 7	RGS16-Gao HTS = 111	GALR2 ag = -1.2	HSV augment = i	HSV augment primary fold = 0.85

Next structures:
SMILES | INS promoter inh | INS promoter inh cell count | PKD1 kinase inh | RGS16-Gao HTS | GALR2 ag | HSV augment | HSV augment primary fold
Cc1ccc(-n2c3c(c(=O)[nH]c2=O)C(NS(=O)(=O)c2ccc(C)cc2)(C(F)(F)F)C(=O)N3)cc1 (stereo unspecified) | 0 | 65 | -8 | 103 | -2.9 | i | 1
Cc1cc(C)n2ncc(/C(N)=N/OC(=O)c3ccccc3F)c2n1 | . | . | . | 103 | . | i | 0.98
Cc1ccc(C(=O)NNC(=O)c2ccco2)cc1 | . | . | 21 | 205 | -2.9 | i | 1.1
CCOC(=O)Nc1ccc2c(c1)OCO2 | 27 | 121 | -10 | 100 | -3.6 | i | 0.91
COc1ccc(C(CNC(=O)c2ccc(S(=O)(=O)N(C)C)cc2)N2CCCCC2)cc1 (stereo unspecified) | . | . | -4 | 102 | . | i | 0.81
c1ccc(-c2noc(CN3CCc4sccc4C3)n2)cc1 | . | . | 4 | 98 | . | i | 0.9
CC/C(=N/Nc1cccc(C)c1)c1cnnc(SC)n1 | -42 | 103 | 7 | 100 | 1.0 | i | 1.2
Cc1nnc(NC(=O)CSc2nc(C3CCCCC3)nc3ccccc23)s1 | -14 | 110 | -15 | 101 | -1.4 | i | 0.67
Cc1cc(C)c2c(=O)[nH]c(SCC(=O)c3ccc(C)c(C)c3)nc2n1 | -9 | 119 | 6 | 101 | . | i | 1.1
COc1ccc(C(=O)c2c[nH]c(C(=O)NCc3ccco3)c2)cc1 | . | . | -2 | 1.2* | -2.9 | . | .
COc1ccc(-c2[nH]ncc2-c2cscn2)c(O)c1 | . | . | 0 | 105 | . | i | 0.99
CCn1c(=O)cc(OCC(=O)NCCCN2CCC(C)CC2)c2ccccc21 | -39 | 107 | -4 | 97 | -1.1 | i | 0.89
CCOc1ccc2oc(-c3ccccc3)c(C(=O)N3CCN(C)CC3)c2c1 | . | . | -3 | 97 | -1.1 | i | 0.67
C=CCC1c2cccc(C(=O)O)c2C(=O)N1c1ccc(F)cc1 (stereo unspecified) | -30 | 75 | 1 | 100 | -2.9 | i | 0.97
COc1ccc(C(=O)CCC(=O)O)cc1 | . | . | -4 | 107 | 1.2 | i | 0.88
CCCCN(CC)CCNc1c(NC2CCN(C(=O)OCC)CC2)c(=O)c1=O | . | . | 0 | 100 | -1.6 | i | 1
CCCCCCCCCCCC(=O)N1CC(=O)NC(=O)C1 | . | . | . | 102 | . | i | 0.97
CCSc1ccccc1C(=O)Nc1nncs1 | 49 | 127 | 3 | 102 | -0.2 | i | 0.93
CCOc1ccc(C2C(C#N)=C(C)NC3=C2C(=O)c2ccccc23)cc1 (stereo unspecified) | 37 | 150 | -8 | 103 | -1.1 | i | 0.72
Cc1ccccc1OCC(O)Cn1c(NCc2ccco2)nc2c1c(=O)n(C)c(=O)n2C (stereo unspecified) | -58 | 106 | 2 | 99 | -1.4 | i | 0.97
Cc1onc(-c2ccccc2)c1C(=O)NCCc1ccc(S(N)(=O)=O)cc1 | . | . | 2 | 98 | -2.2 | i | 0.8
C=CCn1c(-c2cccn(Cc3ccc(Cl)cc3Cl)c2=O)n[nH]c1=S | -35 | 87 | 3 | 95 | -1.8 | i | 0.65
C=CCNC(=O)CSc1nc2cc(C(=O)OCC)ccc2n1CC | -19 | 74 | 2 | 222 | -2.5 | i | 0.96
Cc1ccc(NC(=S)N(Cc2ccccc2)Cc2cccs2)c(C)c1 | 8 | 140 | -10 | 104 | . | i | 0.88
COc1ccc(NC(=O)c2c(Nc3ccccc3)sc(C(=O)c3ccc(F)cc3)c2N)cc1 | 3 | 56 | -2 | 97 | -2.8 | . | .
CN(C)/C=N/C(=S)Nc1cc(Cl)cc(Cl)c1 | -9 | 111 | -6 | 104 | . | i | 0.94
CCOC(=O)N1CCN=C1SCc1ccc(Cl)c(Cl)c1 | -58 | 57 | -4 | 114 | . | i | 0.98
CCC(Oc1ccccc1)C(=O)Nc1ccc(S(=O)(=O)NCC2CCCO2)cc1 (stereo unspecified) | 24 | 93 | 3 | 100 | -1.4 | i | 0.79
O=C1c2cnccc2CN1Cc1ccccc1 | -18 | 133 | -5 | 97 | -1.1 | i | 0.93
O=C(O)c1ccccc1CSc1ccccn1 | -18 | 48 | -2 | 129 | . | i | 1
CCN(CC)CC(=O)Nc1ccc(-c2ccc(NC(=O)CN(CC)CC)c(OC)c2)cc1OC | . | . | -6 | 97 | . | i | 0.83
